Bioassay records (PubChem BioAssay)
GLS inh – qHTS for Inhibitors of Glutaminase (GLS). Glutaminase kidney isoform, mitochondrial (Homo sapiens), O94925. GLS enzymatic activity, qHTS titration. Potency, µM (series often up to 45.5 µM), for inactives: at the top dose activity change, negative = inhibition, actives largely listed as inhibitors. actives 0.21% (n = 410,000). AID 624170, 2012; also: potency is read from the fitted curve at half-maximal effect; % is scaled to controls: 0 for no effect and ±100 for the full control effect
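Glutamate formation by hKGA was monitored fluorometrically using coupled glutamate oxidase, HRP and Amplex Red. Substrate was added as 1 mM L-glutamine solution; incubation was 30 min at RT after an initial read.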
Pin1 inh – qHTS Assay to Find Inhibitors of Pin1; Peptidyl-prolyl cis-trans isomerase NIMA-interacting 1 (Homo sapiens), Q13526; Pin1 FP peptide displacement, HiFluor488, 10 min; Potency, µM (series often up to 115 µM), for the others: at the highest dose activity, negative = inhibition, hits mostly inhibitors; actives 0.009% (n = 390,000); AID 504891, 2011; active = well fitted inhibition curve with a large enough effect in the polarisation, with a control signal flat, not every such curve was filed as active; inconclusive = small, poorly fitted or top-dose-only effect, or effect the other way, or a change in a side signal; inactive = no such curve, though single readings can be large or run the other way; the % refers to the polarisation; also: potency is read from the fitted curve at half-maximal effect; % is scaled to controls: 0 for no effect and ±100 for the full control effect
POLH inh – qHTS for Inhibitors of Polymerase Eta; recombinant Pol eta, fluorescent DNA replication assay; Potency, µM (doses to about 114 µM), for inactives: top-dose activity change, negative = inhibition, actives largely listed as inhibitors; actives 1.2% (n = 390,000); AID 588591, 2011; also: potency is read from the fitted curve at half-maximal effect; % is scaled to controls: 0 for no effect and ±100 for the full control effect
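Pol eta at 10 nM preincubated with compounds 15 min at room temperature; reaction started with fluorescent substrate (50 nM final) and read kinetically at 0 and 10 min.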
JMJD2A Tudor inh – qHTS Assay for Inhibitors of JMJD2A-Tudor Domain. AID 504339, 2011. AlphaScreen JMJD2A-Tudor / H3K4me3 peptide binding. Lysine-specific demethylase 4A (Homo sapiens), O75164. actives 4.4% (n = 390,000). Potency, µM (titrated, usually from 114 µM), for inactives: top-dose activity change, negative = inhibition, actives largely listed as inhibitors; also: potency is read from the fitted curve at half-maximal effect; % is scaled to controls: 0 for no effect and ±100 for the full control effect; nearly all actives have a fitted effect of over 50% in size
Target sequence (O75164 whole entry, looked up, the tested form may be a part): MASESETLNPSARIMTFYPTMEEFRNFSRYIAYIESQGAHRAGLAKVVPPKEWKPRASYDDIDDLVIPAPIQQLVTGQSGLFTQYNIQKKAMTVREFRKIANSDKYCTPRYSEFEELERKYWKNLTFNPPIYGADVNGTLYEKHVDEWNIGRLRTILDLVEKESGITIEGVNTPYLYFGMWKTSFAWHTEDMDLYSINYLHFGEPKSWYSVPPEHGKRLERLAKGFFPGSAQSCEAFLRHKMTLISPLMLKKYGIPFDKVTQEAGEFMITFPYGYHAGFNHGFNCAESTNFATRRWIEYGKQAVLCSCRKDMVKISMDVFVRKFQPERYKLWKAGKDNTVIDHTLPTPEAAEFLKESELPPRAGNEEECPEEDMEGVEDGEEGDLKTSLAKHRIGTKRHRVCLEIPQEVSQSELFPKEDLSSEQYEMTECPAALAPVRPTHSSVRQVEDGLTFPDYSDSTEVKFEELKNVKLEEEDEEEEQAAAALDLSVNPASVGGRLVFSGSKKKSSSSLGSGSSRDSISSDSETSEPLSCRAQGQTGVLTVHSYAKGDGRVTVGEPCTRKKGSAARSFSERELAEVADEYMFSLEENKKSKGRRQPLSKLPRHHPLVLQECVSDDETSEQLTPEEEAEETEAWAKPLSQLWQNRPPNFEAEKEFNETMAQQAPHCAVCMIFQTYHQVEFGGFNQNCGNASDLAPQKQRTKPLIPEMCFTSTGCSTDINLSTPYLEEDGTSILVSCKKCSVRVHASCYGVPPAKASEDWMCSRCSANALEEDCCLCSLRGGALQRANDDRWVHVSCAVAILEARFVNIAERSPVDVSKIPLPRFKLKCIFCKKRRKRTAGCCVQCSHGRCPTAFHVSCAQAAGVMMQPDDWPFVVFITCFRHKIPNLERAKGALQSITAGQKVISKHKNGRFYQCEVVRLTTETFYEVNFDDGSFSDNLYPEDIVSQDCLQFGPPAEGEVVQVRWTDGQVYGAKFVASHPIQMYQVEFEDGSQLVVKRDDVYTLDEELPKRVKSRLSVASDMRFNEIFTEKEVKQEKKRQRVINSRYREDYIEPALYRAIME
HP1b chromo inh – HTS for Inhibitors of HP1-beta Chromodomain Interactions with Methylated Histone Tails | Potency, µM (highest dose often 114 µM), without a hit: at the top dose activity change, negative = inhibition, usual class: inhibitors | Chromobox protein homolog 1 (Homo sapiens), P83916 | AID 540317, 2011 | actives 0.56% (n = 390,000) | AlphaScreen HP1-beta / biotin-H3K9me3 peptide binding; also: potency is read from the fitted curve at half-maximal effect; nearly all actives have a fitted effect of over 70% in size; inactives centre near 23
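AlphaScreen: HP1-beta (50 nM) preformed 30 min with biotin-H3(1-18)K9me3 peptide (50 nM) in PBS pH 7.4, 0.01% Tween-20. Compound added for 30 min at RT, then streptavidin donor/nickel chelate acceptor beads (10 ug/mL) for 30 min.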
PI4K2A block – qHTS for small molecular inhibitors of PI4K2A; Phosphatidylinositol 4-kinase type 2-alpha (Homo sapiens), Q9BTU6; purified PI4K2A, ADP-Glo luminescence, 1 h; active compounds read low; activity change, negative = inhibition, % at 76.9 µM; actives 0.13% (n = 420,000); AID 1346378, 2018; in the data active = activity change below about -50%; inconclusive = mostly about -30% to -49%;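 also: -100% = wells without enzyme as full effect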
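PI4K2A activity was measured by ADP-Glo luminescence: enzyme (4 ug/mL stock) and phosphatidylinositol (1.2 mM stock) in Tris pH 7.5/MgCl2/EGTA/Triton X-100 buffer were reacted with ATP (300 microM stock) for one hour at ambient temperature.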
G9a block – qHTS Assay for Inhibitors of Histone Lysine Methyltransferase G9a | G9a H3K9 monomethylation, AlphaScreen, 2 h | actives 8.8% (n = 350,000) | AID 504332, 2011 | Potency, µM (titrated, usually from 102 µM), for inactives: top-dose activity, negative = inhibition, actives largely listed as inhibitors; also: potency is read from the fitted curve at half-maximal effect; % is scaled to controls: 0 for no effect and ±100 for the full control effect; nearly all actives have a fitted effect of over 75% in size
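Compounds were preincubated with 20 nM G9a for 15 min, after which biotinylated H3K9 peptide (500 nM) and SAM (20 uM) started a 2 h room-temperature reaction. Monomethylated product was quantified by antibody-based AlphaScreen chemiluminescence.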
PGK inhibitor – qHTS Assay to Find Inhibitors of Phosphoglycerate Kinase; actives 0.043% (n = 380,000); Potency, µM (doses to about 57.5 µM), for the others: top-dose activity change, negative = inhibition, hits mostly inhibitors; PGK/GAPDH coupled, Kinase-Glo luminescence, 60 min; also: potency is read from the fitted curve at half-maximal effect; % is scaled to controls: 0 for no effect and ±100 for the full control effect; nearly all actives have a fitted effect of over 60% in size
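Recombinant glycosomal PGK reaction used 1,3-bisphosphoglycerate generated in-well by GAPDH (100nM final) in 100mM TEA pH 7.6, 5mM MgCl2, 0.01% Tween-20. After 60 minutes at room temperature, ATP was read by Kinase-Glo Plus luminescence end-point.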
* hit, by the source's call; i = inactive; u = inconclusive; x = no result given; & = joins results of further samples; [ ] = another dose, or the depositor's remark. Unless noted, calls follow the shape of the dose curve; as a rule, active = well fitted curve in the direction sought with a large enough effect; inconclusive = small, poorly fitted or top-dose-only effect, or another doubt; inactive = no such curve, though single readings can be large; an effect the other way counts as inactive or inconclusive. Not all compounds are listed. The share of hits here may be higher or lower than overall.

1	Cc1ccc(Cc2c(C)nc3nc(SCC(=O)NC4CCC(C)CC4)nn3c2C)cc1 (configuration not stated)
2	COc1ccc(C(=O)N2CCC(n3c(C)nc4cc(F)ccc43)CC2)cc1
3	COc1ccc(/C=N/c2oc(-c3ccccc3)cc2C#N)cc1
4	N#Cc1nc(Cc2cccc3ccccc23)oc1N1CCOCC1
5	CCOc1ccccc1CNC(=O)CCCn1ncn2c(cc3occc32)c1=O
6	CC(C)C[C@H](CO)Nc1nc(Nc2cccc(Cl)c2)c2ncn(C(C)C)c2n1
7	CCCn1nnnc1NC(=O)COc1ccc(Cl)cc1C
8	COc1ccc(OC)c(NC(=O)CSc2ccc(-c3sc(C)nc3C)nn2)c1
9	C1CCC(n2nnnc2CN2CCN(C3CCCC3)CC2)CC1
10	CCn1c(=O)n(CC)c2cc(N3CCCC3)c(NC(=O)c3cc(Br)ccc3OC)cc21
compound no. | 1 | 2 | 3 | 4 | 5 | 6 | 7 | 8 | 9 | 10
GLS inh | -4% | -12% | 12% | 12% | 4%&8% | 3% | 22% | -6% | 16% | -7%
Pin1 inh | -4% | 8% | 6% | -4% | 3%&2% | 6% | -3% | -1% | -1% | -1%
POLH inh | -18% | -12% | -8% | 1% | 1%&-13% | -9% | -4% | -26% | -4% | 1%
JMJD2A Tudor inh | u | -1% | u | u | -22%&-9% | u | -17% | -3% | -5% | 7%
HP1b chromo inh | 54%[activator] | 43%[activator] | u | u | 9%[57 µM] | -9% | 28% | 24%[57 µM] | 11% | 45%
PI4K2A block | 0 | 0 | 4 | -3 | -7&2 | 0 | 0 | 4 | 7 | 2
G9a block | -34%[59 µM] | 9%[59 µM] | u | -25%[59 µM] | -1%[0.0925 µM] | u | 27% | -13%[59 µM] | u | 45µM*
PGK inhibitor | -2% | -10% | -3% | -9% | 0%&7% | -8% | 3% | -4% | -2% | -7%

11	Cc1nn2c(c1-c1ccc(Cl)cc1)N=C(c1ccco1)CC2c1ccccc1 (configuration not stated)
12	CSc1nc(C(=O)N2CCCC(Nc3ccc(C)c(C)c3)C2)cs1 (configuration not stated)
13	CCc1cc(C(=O)c2ccc(OC)cc2)c(NC(=O)CN2CCN(C)CC2)s1
14	CCCN1C(=O)/C(=C/c2cc(C)n(C)c2C)SC1=Nc1ccc(OC)cc1
15	COc1ccccc1OCCn1cc(/C=N/NC(N)=S)c2ccccc21
16	Cc1cccc(/C=C2\Sc3ccc(C(=O)N4CCC(C)CC4)cc3N(C)C2=O)c1
17	Clc1ccccc1Cc1noc(CN2CCN(Cc3ccccn3)CC2)n1
18	O=[N+]([O-])c1ccc(CSc2ccc(-c3ccccn3)nn2)cc1
19	Cc1ccc(Oc2nsnc2N2CCOCC2)cc1
20	CC(=O)Nc1ccc(-c2csc(NCc3ccccc3)n2)cc1
compound no. | 11 | 12 | 13 | 14 | 15 | 16 | 17 | 18 | 19 | 20
GLS inh | -8% | 0% | 3% | -7% | 12% | -2% | -6% | -11% | x | u
Pin1 inh | 38%[activator] | -1% | 4% | 27% | u | 7% | -3% | 3% | 0% | 0%
POLH inh | -23% | -19% | 7% | -22% | -5% | -16% | -7% | 9% | -4% | -24%
JMJD2A Tudor inh | u | u | -36% | u | u | -18% | u | u | 16% | -25%
HP1b chromo inh | u | u | 15% | u | -23% | 50%[activator] | 7% | 25% | 42%[activator] | -18%
PI4K2A block | 8 | 2 | 7 | 2 | 3 | 16 | -8 | -1 | 3 | -5
G9a block | x | x | x | u | 12%[59 µM] | -1% | -19% | -11% | -24%[59 µM] | 35µM*
PGK inhibitor | 1% | i | 2% | i | -1% | -1% | -6% | -1% | -6% | 3%

Part of the list above in order of heavy-atom count, ascending.
19	Cc1ccc(Oc2nsnc2N2CCOCC2)cc1
7	CCCn1nnnc1NC(=O)COc1ccc(Cl)cc1C
20	CC(=O)Nc1ccc(-c2csc(NCc3ccccc3)n2)cc1
12	CSc1nc(C(=O)N2CCCC(Nc3ccc(C)c(C)c3)C2)cs1 (configuration not stated)
15	COc1ccccc1OCCn1cc(/C=N/NC(N)=S)c2ccccc21
14	CCCN1C(=O)/C(=C/c2cc(C)n(C)c2C)SC1=Nc1ccc(OC)cc1
8	COc1ccc(OC)c(NC(=O)CSc2ccc(-c3sc(C)nc3C)nn2)c1
16	Cc1cccc(/C=C2\Sc3ccc(C(=O)N4CCC(C)CC4)cc3N(C)C2=O)c1
10	CCn1c(=O)n(CC)c2cc(N3CCCC3)c(NC(=O)c3cc(Br)ccc3OC)cc21
compound no. | 19 | 7 | 20 | 12 | 15 | 14 | 8 | 16 | 10
GLS inh | x | 22% | u | 0% | 12% | -7% | -6% | -2% | -7%
Pin1 inh | 0% | -3% | 0% | -1% | u | 27% | -1% | 7% | -1%
POLH inh | -4% | -4% | -24% | -19% | -5% | -22% | -26% | -16% | 1%
JMJD2A Tudor inh | 16% | -17% | -25% | u | u | u | -3% | -18% | 7%
HP1b chromo inh | 42%[activator] | 28% | -18% | u | -23% | u | 24%[57 µM] | 50%[activator] | 45%
PI4K2A block | 3 | 0 | -5 | 2 | 3 | 2 | 4 | 16 | 2
G9a block | -24%[59 µM] | 27% | 35µM* | x | 12%[59 µM] | u | -13%[59 µM] | -1% | 45µM*
PGK inhibitor | -6% | 3% | 3% | i | -1% | i | -4% | -1% | -7%

Later entries
21	COCCN(CCOC)S(=O)(=O)c1ccc(C(=O)Nc2nnc(COC)o2)cc1
22	COc1ccc(OC)c(CNC(=O)C(C)n2c(C)c3cnn(-c4ccccc4)c(=O)c3c2C)c1 (configuration not stated)
23	CC(C)C[C@H](N)c1nnc(SCC(=O)Nc2ccc(Br)cc2)o1
24	COC(=O)c1cc2occc2n1Cc1ccc(Cl)cc1
25	COCCCNC(=O)c1ccc2c(c1)N=C(C)c1c(C)ccc(C)c1S2
26	CC(C)COc1cccc(C(=O)Nc2ccc(-c3nc4ncccc4o3)cc2)c1
27	Cc1ccc(Nc2c(N)c(=O)oc3ccccc23)cc1
28	O=C(CSc1nnnn1-c1ccc2c(c1)OCCO2)Nc1nc2c(s1)CCCC2
29	O=[N+]([O-])c1cc(Cl)ccc1N1CCCCC1
compound no. | 21 | 22 | 23 | 24 | 25 | 26 | 27 | 28 | 29
GLS inh | 4% | -15% | 6% | 6% | -10% | -3% | 15% | -4% | -11%
Pin1 inh | -1% | -11% | -7% | 2% | -11% | 49% | u | 6% | -3%
POLH inh | -14% | x | 9% | -6% | -15% | 2% | -4% | -11% | -6%
JMJD2A Tudor inh | u | u | -13% | -16% | -23% | -17% | -35%[57.1 µM] | -15% | u
HP1b chromo inh | 16% | -5% | 66%[activator] | -18% | 19% | 29% | -17% | 3% | u
PI4K2A block | 1 | 4 | -9 | 3 | 0 | -3 | 6 | -2 | 10
G9a block | u | -33%[59 µM] | x | 50µM* | 2%[59 µM] | -20%[59 µM] | u | -32% | 40µM*
PGK inhibitor | -1% | x | -3% | -1% | i | -5% | 8% | 5% | -7%
